From PubChem
Mtb H37Rv – M. tuberculosis H37Rv growth inhibitors, H37Rv strain (AID 1626). M. tuberculosis H37Rv growth inhibition; higher % means a stronger effect. inhibition, % at 10 µM, or IC50 in µM where a hit was titrated. hit rate 0.95% among 220,000;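 active means confirmed in a dose series; inconclusive means inhibition above 80% but not taken into the dose series; inactive means below 80% or under 30% at every dose of the series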;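 further: bacteria incubated seven days before Alamar blue readout; 0% = bacteria only wells and 100% = bacteria with antibiotic wells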
Arbovirus anti – blocks arbovirus infection. inhibition, % at 10 µM. hit rate 0.37% among 200,000. arbovirus infection cell-based antiviral screen;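 active means inhibition from about 30%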;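 further: bluetongue infection of BSR cells; cell survival read as ATP light after 72 h; 0% = infected wells without compound and 100% = uninfected wells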
YopH PTP inh – blocks Yersinia enterocolitica YopH tyrosine phosphatase; fluorescence Ex485/Em525; inhibition, %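 (about 10 µM by stock and volumes)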; hit rate 0.16% among 140,000;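 active means inhibition of 50% or more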;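 further: controls were vehicle for no effect and minimum signal wells for full effect; inactives centre near -20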
Mtb bLac sens – beta-lactam sensitization of Mtb H37Rv; M. tuberculosis H37Rv growth with meropenem, percent inhibition; hits of this screen are not shown here; inhibition, % at 25 µM; hit rate 0.27% among 330,000;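 active means about 74% or more and at least 40 points above the plate without the antibiotic, then above 30% in a dose series; inconclusive means first-round hits that could not be retested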;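 further: growth measured after seven days incubation then overnight dye step; 0% = bacteria only wells and 100% = bacteria with antibiotic; twin plates without the antibiotic show which effects depend on it; some results filed as inactive read as strong as hits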
RecA splice inh – Mtb RecA intein splicing inhibition; P9WHJ3; inhibition, %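 (about 9 µM by stock and volumes)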; hit rate 0.75% among 290,000; cell-free RecA intein splicing, fluorescence; in the data active means inhibition above about 30%; inconclusive means no clear call, values can overlap the other calls;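 further: 0% = vehicle wells and 100% = reference inhibitor control wells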
Target sequence (P9WHJ3 whole entry, looked up, canonical isoform): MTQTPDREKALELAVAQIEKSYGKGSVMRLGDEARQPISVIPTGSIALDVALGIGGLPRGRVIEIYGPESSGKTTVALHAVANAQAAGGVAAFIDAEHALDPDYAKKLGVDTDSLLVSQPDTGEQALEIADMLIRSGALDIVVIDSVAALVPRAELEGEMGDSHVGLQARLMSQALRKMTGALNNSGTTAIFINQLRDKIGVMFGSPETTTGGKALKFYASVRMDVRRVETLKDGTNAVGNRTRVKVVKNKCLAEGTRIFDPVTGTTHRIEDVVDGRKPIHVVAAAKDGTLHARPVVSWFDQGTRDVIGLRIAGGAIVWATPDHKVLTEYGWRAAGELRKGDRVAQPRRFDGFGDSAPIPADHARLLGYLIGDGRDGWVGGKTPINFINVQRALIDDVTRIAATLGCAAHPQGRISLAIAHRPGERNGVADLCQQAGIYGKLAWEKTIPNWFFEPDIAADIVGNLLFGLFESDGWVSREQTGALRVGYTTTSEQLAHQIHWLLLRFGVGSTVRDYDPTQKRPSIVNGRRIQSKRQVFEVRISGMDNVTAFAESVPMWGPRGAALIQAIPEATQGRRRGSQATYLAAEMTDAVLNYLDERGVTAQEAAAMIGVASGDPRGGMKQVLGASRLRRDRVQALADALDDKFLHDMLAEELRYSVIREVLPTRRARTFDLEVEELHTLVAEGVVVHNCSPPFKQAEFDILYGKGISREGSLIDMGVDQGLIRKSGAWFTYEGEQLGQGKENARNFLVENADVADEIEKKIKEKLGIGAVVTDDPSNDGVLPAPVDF
Arbovirus anti repeat – recorded beside Arbovirus anti, whose call it bears; inhibition, %; measured here: 10K subset replicate screen; many hits read low in the repeat;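 first of two repeat runs on a subset; 0% = infected and 100% = uninfected wells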
An asterisk follows results filed as active; u = inconclusive; x = not tested or not shown.

SMILES	Mtb H37Rv	Arbovirus anti	YopH PTP inh	Mtb bLac sens	RecA splice inh	others
CCOC(=O)c1ccc(NC(=O)c2c(N)n(C)c(=O)[nH]c2=O)cc1	4%	x	x	-6	-0.9
O=C(c1cc(F)c(F)cc1Cl)N1CCN(CCc2ccccc2)CC1	x	x	x	-7	2.0
COc1cc(NC(=O)C2CCN(S(=O)(=O)c3ccc(N4CCCC4=O)cc3)CC2)cc(OC)c1	x	x	x	6	-0.3
O=C(CN1CCCC1)Nc1ccc(Oc2ccc(NC(=O)CN3CCCC3)cc2)cc1	-10%	-31	-33	3	-0.6
Cc1nc2ccc(Br)cc2c2c1CC(CBr)O2 (stereo not given)	x	x	x	5	2.9
O=C1CC[C@H](N2C(=O)c3ccccc3C2=O)C(=O)N1	x	x	x	2	0.4
C/C=C(\C)C(=O)NCCN1C2=NC[C@@H](Cc3ccccc3)N2C[C@H]1Cc1ccc(O)cc1	-8%	1	x	-12	1.3
O=C(c1cc2ccccc2o1)N1CC=C(c2ccccc2)CC1	-5%	x	x	4	x
COc1ccc(-c2cc3n(n2)CCc2nc4ccccc4n2-3)cc1	9%	9	-8	98	-0.4
S=C(NCCc1ccc(Cl)cc1)NCc1ccco1	1%	2	x	-1	5.6
CC(=O)N(Cc1ccc(F)cc1)C1=C(NCc2ccccc2)C(=O)c2ccccc2C1=O	x	-30	25	x	77*
CCOCCCNC(C(=O)Nc1ccc(OC)c(Cl)c1)c1ccccc1 (stereo not given)	2%	-5	x	-2	1.1

Reprinted from the results shown, 6 compounds:
SMILES	Mtb H37Rv	Arbovirus anti	YopH PTP inh	Mtb bLac sens	RecA splice inh	others
CCOC(=O)c1ccc(NC(=O)c2c(N)n(C)c(=O)[nH]c2=O)cc1	4%	x	x	-6	-0.9
O=C(c1cc(F)c(F)cc1Cl)N1CCN(CCc2ccccc2)CC1	x	x	x	-7	2.0
COc1cc(NC(=O)C2CCN(S(=O)(=O)c3ccc(N4CCCC4=O)cc3)CC2)cc(OC)c1	x	x	x	6	-0.3
O=C(CN1CCCC1)Nc1ccc(Oc2ccc(NC(=O)CN3CCCC3)cc2)cc1	-10%	-31	-33	3	-0.6
Cc1nc2ccc(Br)cc2c2c1CC(CBr)O2 (stereo not given)	x	x	x	5	2.9
O=C1CC[C@H](N2C(=O)c3ccccc3C2=O)C(=O)N1	x	x	x	2	0.4

Remaining list, next part:
SMILES	Mtb H37Rv	Arbovirus anti	YopH PTP inh	Mtb bLac sens	RecA splice inh	others
CN(/N=C/c1cc(Cl)ccc1O)C1=NS(=O)(=O)c2ccccc21	x	x	x	12	-1.2
O=C(N/N=C1\CCCc2ccccc21)c1ccccc1Cl	-10%	-7	x	3	x
CCn1c(SCC(=O)N2CCCCCC2)nc2c(c1=O)SCC2	x	x	x	-7	-2.3
COc1cccc(/C=N/N2CCN(c3ccccc3OC)CC2)c1	-1%	-2	-19	4	-4.4
O=C1N[C@@H](Cc2ccccc2)C(=O)N2[C@@H]1C[C@@]1(Br)c3ccccc3N(S(=O)(=O)c3ccccc3)[C@@H]21	-9%	x	x	-7	0.3
COCc1cc(/C=N\NC(=O)Cc2ccc(Cl)cc2)ccc1OC	-3%	-2	-29	2	-0.9
O=C(CCS(=O)(=O)c1ccccc1)N1CCN(c2ccc(F)cc2)CC1	x	x	x	1	0.7
C/C(=N\NC(=O)CN(c1ccccc1)S(C)(=O)=O)c1ccccc1O	5%	-24	x	-1	-1.9
CN(C1CCCCC1)S(=O)(=O)c1ccc(-n2cnnn2)cc1	-7%	-1	-35	-1	-1.6
C=CCOc1nc(N(C)C)nc(N(C)C)n1	-9%	7	-15	2	-2.5
FCCCOc1ccc(-c2ccnc(-c3ccccc3)n2)cc1	9%	8	-37	6	2.9
COC(=O)c1cc(S(=O)(=O)NCC2CCN(Cc3ccc(C)cc3)CC2)cn1C	x	x	x	25	-2.5
Cc1ccc(CN2CCN(Cc3ccc(O)cc3)CC2CCO)o1 (stereo not given)	-8%	1	x	1	1.6
COc1c(C(=O)NNC(=O)c2ccccc2Cl)csc1Br	-12%	x	x	-12	-5.1
O=C(CN1C(=O)CCSc2ccc(S(=O)(=O)N3CCOCC3)cc21)Nc1ccccc1Cl	x	x	x	1	4.5
C/C(=N\NC(=O)CC#N)c1ccc(Oc2ccccc2)cc1	17%	-12	x	2	1.4
Cc1oc(-c2ccc(Cl)cc2)cc1C(=O)NC1CCN(Cc2ccccc2)CC1	60%	x	x	46	1.5
CCCCN(C(=O)CNC(=O)c1ccco1)C(C(=O)NC1CCCCC1)c1ccc(OC)cc1OC (stereo not given)	2%	-8	-31	-6	-1.1
Cc1ccc(C(=O)Nc2nc(-c3cc(Cl)sc3Cl)cs2)cc1	3%	-11	-14	10	-2.2
Cc1ccc(C(=O)O/N=C/c2ccc(N(C)C)cc2)cc1	13%	2	x	-5	-1.1
CC(C)N(Cc1ccccc1)S(=O)(=O)c1cccs1	x	x	x	1	-2.1
CSc1cc(-c2ccncc2)nc(-c2ccc(Cl)cc2)c1	x	x	x	97	-3.2
Cc1cc(F)ccc1NC(=O)C1CCCO1 (stereo not given)	3%	2	x	-2	-1.3
N#Cc1cc(NC2CCCC2)c([N+](=O)[O-])cc1C#N	-2%	1	-16	-4	0.2
CC1(C)Oc2ccc(C(=O)N/N=C/c3ccc(O)cc3)cc2NC1=O	x	x	x	-4	5.4
COc1ccc(C(=O)COC(=O)c2cccnc2SC)cc1	6%	6	x	5	-0.3
COc1cc(/C=N/NC(=O)COc2ccc(-n3cnnn3)cc2)ccc1OCC(N)=O	-16%	x	x	-4	-0.2
CCc1cc2c(=O)n(-c3ccccc3)c(SCC(N)=O)nc2s1	x	x	x	3	0.7
CCOC(=O)CCCc1ccc(/C(C)=N/NC(=S)NC)cc1	9%	x	x	91	1.4
CCOC(=O)N1CCN(Cc2nc3c(c(=O)n(C)c(=O)n3C)n2Cc2cccc(C)c2)CC1	-3%	-7	-1	1	1.1
CCc1ccc2[nH]c(=O)c(CN(CCCO)C(=O)NCc3ccccc3)cc2c1	-5%	-4	-5	-7	4.3
CC1(OC(=O)CCc2ccccc2)C(=O)C=C2C=C(c3ccc(C#N)cc3)N(C(CO)CO)C=C2C1=O (stereo not given)	-10%	x	x	2	-2.1
O=C(c1ccccc1)c1cc2ccccc2oc1=O	x	x	x	7	-0.2
Cc1cc(NC(=O)CCC(=O)N(c2ccccc2)C(C(=O)NCC2CCCO2)c2cccnc2)no1 (stereo not given)	4%	1	-35	-7	-1.1
CSc1ccc(CNC(=O)C2Cc3cc(S(=O)(=O)N4CCCC4)ccc3N2C(C)=O)cc1 (stereo not given)	x	x	x	1	-0.7
COc1ccc(CCNC(=O)CSc2nc3c(c(=O)n(C)c(=O)n3C)n2C)cc1OC	-3%	11	-9	-1	-1.0
Cc1ccc(C(=O)CSc2nc(-c3ccccc3)ccc2C#N)cc1	4%	-9	-21	3	-8.0
CCOc1ccc(OCCC(=O)OCC(=O)NC2CCCCC2)cc1	x	x	x	3	1.6
O=c1[nH]c(/C=C/c2ccccc2OC(F)F)nc2c1cnn2-c1ccccc1	3%	-12	-38	-1	-46
Cc1cc(C)c(Cn2ncn(-c3ccc(Br)cc3)c2=O)c(C)c1	0%	2	x	-3	2.2
CN(C)c1ccc(C(=O)OCC(=O)N2CCCCCC2)cc1	2%	-1	x	-3	0.1
COc1ccc(/C=C/C(=O)c2ccc(C)c([N+](=O)[O-])c2)cc1O	>100µM*	-35	-25	96	-0.1
O=C(COC(=O)c1ccco1)NCc1ccc2c(c1)OCO2	-5%	x	x	7	-1.0
O=C(Nc1cccc(-c2ccc(N3CCOCC3)nn2)c1)c1ccc([N+](=O)[O-])cc1	x	x	x	-1	-1.3
CCOC(=O)c1cnc(-c2ccccc2)nc1N(C)C	11%	4	0	-3	2.3
O=C1CCN(Cc2ccccc2)CCN1CCOc1ccccc1	x	x	x	-12	1.2
Cc1cccc(OCCOc2ccc(/C=N/NC(=O)Cc3nnc(N)s3)cc2)c1	-5%	-20	-38	22	0.6
NC(CC(=O)O)c1cccc(OCc2ccccc2)c1 (stereo not given)	-3%	0	-25	-10	x
Cc1ccc(C(=O)C(C)OC(=O)c2ccccc2[N+](=O)[O-])cc1 (stereo not given)	7%	-3	-16	57	-1.6
NS(=O)(=O)c1ccc(NC(=S)NC2CCCCCC2)cc1	-4%	3	-30	12	0.0
c1nc(NCCN2CCOCC2)c2sc3nc(N4CCOCC4)c4c(c3c2n1)CCC4	x	5	-22	2	7.0	Arbovirus anti repeat=7
OCCn1c(SCCOc2ccccc2)nc2ccccc21	-9%	0	-21	2	0.6
CCN(CC)C(=O)c1ccc(NC(=S)NC(=O)CCc2ccccc2)cc1	x	x	x	u	5.0
CCOC(=O)c1c(C)[nH]c(C)c1C(=O)COC(=O)/C=C/c1ccc(OC(F)F)cc1	13%	10	0	x	1.9
c1ccc(Cn2ncc3c(NCc4ccco4)ncnc32)cc1	5%	-12	-17	1	-0.3
O=C(CN(Cc1ccccc1F)S(=O)(=O)c1ccc(Cl)cc1)NCCCO	4%	2	-25	0	2.8	Arbovirus anti repeat=-5
O=C(O)CCCCCNC(=O)c1ccncc1	-1%	4	-21	1	-1.5
O=C(C1CCCN(Cc2ccncc2)C1)N1CCc2ccccc2C1 (stereo not given)	-3%	12	-33	-4	5.5
CCOc1ccc(Cn2c(=O)oc3ccc(C)cc32)cc1OC	-15%	-2	13	-4	1.0
NC(=O)NC(Cc1ccccc1)C(=O)NCCCSc1ccccc1 (stereo not given)	x	x	x	4	1.8
Next entries follow:
SMILES	Mtb H37Rv	Arbovirus anti	YopH PTP inh	Mtb bLac sens	RecA splice inh	others
CCc1cccc(NC(=O)CCS(=O)(=O)c2cccc3nonc23)c1	19%	3	-12	58	-0.7	Arbovirus anti repeat=-2
CCCCn1c(=NC(C)=O)c(C#N)cc2c(=O)n3cccc(C)c3nc21	x	x	x	1	-2.2
CCc1cccc(C)c1NC(=O)C1CC=CCC1C(=O)O (stereo not given)	-6%	4	x	0	-0.4
O=C(O)c1cccc(S(=O)(=O)Nc2ccc(S(=O)(=O)N3CCOCC3)cc2)c1	3%	0	x	-1	-1.7
O=C(C1CCN(S(=O)(=O)c2ccc(Br)s2)CC1)N1CCN(c2ccccc2)CC1	x	x	x	-2	-0.5
CCn1c(/C(C#N)=N/O)nc2ccccc21	-10%	-4	-38	-3	-2.6
CC(O)CCC(=O)NNC(=S)Nc1ccccc1 (stereo not given)	-9%	5	x	0	-0.2
CCN(CC(=O)NC1CCS(=O)(=O)C1)S(=O)(=O)c1ccc(C)c(C)c1 (stereo not given)	-4%	-5	-27	0	1.4
O=C(c1ccc(Cl)c(Cl)c1)N1CCN(c2ccccn2)CC1	x	x	x	-1	-0.6
CN(C)c1ccc(N=Cc2nc(-c3ccccc3)oc2OC(=O)c2ccccc2)cc1	1%	9	-35	-4	-5.4
CC1(C)CC(=O)C(C=NCCN2CCN(C3CC(=O)N(c4cccc(Br)c4)C3=O)CC2)=C(O)C1 (stereo not given)	3%	4	x	-5	6.0
S=c1[nH]nc(-c2cccnc2)n1/N=C/c1ccccc1	-12%	x	x	-10	3.0
O=C(CSc1nnc(-c2ccc(Cl)cc2)n1-c1ccc(Cl)cc1)N/N=C/c1ccccc1C(=O)O	-9%	x	x	-7	-2.2
O=C1CC(c2ccc(Cl)c(Cl)c2)CC(O)=C1C=NCCN1CCNCC1 (stereo not given)	-3%	4	-1	x	0.3	Arbovirus anti repeat=-1
Cc1nn(CCc2n[nH]c(=S)n2-c2ccc(F)c(Cl)c2)c(C)c1[N+](=O)[O-]	-9%	10	-22	-12	1.9
O=C(N/N=C\c1cccc(F)c1)c1ccc(Cn2cc(Br)c([N+](=O)[O-])n2)o1	-2%	0	x	1	2.3
CC(C)Oc1ccc(C2CC(=O)N(c3cccc(Br)c3)C2=O)cc1 (stereo not given)	3%	x	x	-6	2.9
CC(=O)c1cccc(NC(=O)C2=CC(c3cccs3)=NS(=O)(=O)N2C)c1	x	x	x	1	-4.7
Cc1cccc(OCCOCCN2CCOCC2)c1C	-9%	0	-13	5	-1.2
O=C(CN1CCN(Cc2cccc(Cl)c2)C1=O)NCc1cccs1	4%	3	x	-9	1.6
CC(C)Cc1ccc(C(=O)Nc2ccc(Cc3ccncc3)cc2)o1	x	x	x	4	6.0
CC(C)C(=O)c1cn(CC(=O)O)c2ccccc12	4%	0	x	4	-0.7
Cn1c(N)c(C(=O)COC(=O)c2ccccn2)c(=O)n(C)c1=O	2%	7	x	-10	-2.5
CC1(C)CC(=O)c2sc(NC(=O)C3CC3)nc2C1	4%	1	x	-5	-2.1	Arbovirus anti repeat=-1
COc1ccc2cc(-c3ccn[nH]3)ccc2c1	x	x	x	40	4.6
O=S(=O)(NCc1ccco1)c1ccc(S(=O)(=O)N2CCCC2)cc1	-14%	8	x	-2	3.3

Not all compounds are listed; rates above refer to the full screens.
